# High-throughput results (PubChem)
# Rango release inh: inhibition of RanGTP-driven Rango-importin beta dissociation; O95149+P62826; Biochemical FRET Rango-importin beta, RanGTP-induced dissociation; Potency, µM (highest dose often 46.1 µM), for inactives: at the highest dose activity change, negative = inhibition; hit rate 0.071% among 340,000; AID 540253; active means falling FRET ratio curve, often poorly fitted, with flat reads before Ran was added; inconclusive means other falling curves, or compound fluorescence or quenching; inactive means flat or rising ratio curve;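 further: potency means the concentration at half of the fitted maximal effect; % of control where 0% means no effect; nearly all actives have a fitted effect of over 45% in size; -100% = wells without RanGTP and RCC1; the record marks most hits as doubtful in a second field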
#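 Rango FRET biosensor (snurportin-1 IBB flanked by N-terminal EYFP and C-terminal CFP10) at 0.1 uM, with 0.25 uM importin beta in PBS, 1mM DTT, 0.02% Tween-20, 0.1% BSA. 0.6 uM Ran, 2mM GTP and 0.2 uM RCC1 were then added for 45 min at room temperature. Inhibition read as loss of FRET rise.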
# miR-21 reporter: raises the signal of a miR-21 reporter; HeLa miR-21 FLuc reporter, luciferase, 48 h; 340,000 tested, under 10 active; Potency, µM (series often up to 38.3 µM), for the others: at the highest dose reporter change, positive = more light; active = well fitted rising curve with a large enough effect; inconclusive = small, poorly fitted or top-dose-only effect; inactive = no such curve, though single readings can be large or run the other way;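 further: % of control where 0% means no effect; miR-21 action dims this reporter so a rising signal means less miR-21 action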
#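 HeLa cells endogenously expressing miR-21, stably carrying CMV-driven firefly luciferase with a downstream miR-21 binding site, 2000 cells/well. Titrations up to approximately 40 uM, 48 hours; luciferase luminescence read.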
# GLA inh pH 4.5: blocks human alpha-galactosidase A at pH 4.5. purified enzyme, 4-MU-alpha-Gal fluorescence, pH 4.5. activity change, negative = inhibition, % at 105 µM. 230,000 tested, under 10 active; inconclusive = small, poorly fitted or top-dose-only inhibition, or a rising curve; inactive = flat fitted curve, though single readings scatter; no compound was filed as active;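 further: 0% = full activity with enzyme and -100% = basal without enzyme; dose as in the result columns while the protocol names 77 µM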
# Rango complex inh: inhibitors of Rango-importin beta complex formation. Q14974. Rango CFP/YFP FRET sensor + importin beta, 45 min. Potency, µM (highest dose often 92.2 µM), for inactives: at the top dose inhibition of complex formation. hit rate 0.031% among 340,000; active = rising FRET ratio curve, often small or poorly fitted; inconclusive = mostly compound fluorescence or quenching in the first reads; inactive = flat curves in all reads;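 further: potency means the concentration at half of the fitted maximal effect; 0% = DMSO wells and 100% = buffer wells lacking importin beta; nearly all actives have a fitted effect of over 15% in size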
# Target sequence (Q14974 whole entry, looked up): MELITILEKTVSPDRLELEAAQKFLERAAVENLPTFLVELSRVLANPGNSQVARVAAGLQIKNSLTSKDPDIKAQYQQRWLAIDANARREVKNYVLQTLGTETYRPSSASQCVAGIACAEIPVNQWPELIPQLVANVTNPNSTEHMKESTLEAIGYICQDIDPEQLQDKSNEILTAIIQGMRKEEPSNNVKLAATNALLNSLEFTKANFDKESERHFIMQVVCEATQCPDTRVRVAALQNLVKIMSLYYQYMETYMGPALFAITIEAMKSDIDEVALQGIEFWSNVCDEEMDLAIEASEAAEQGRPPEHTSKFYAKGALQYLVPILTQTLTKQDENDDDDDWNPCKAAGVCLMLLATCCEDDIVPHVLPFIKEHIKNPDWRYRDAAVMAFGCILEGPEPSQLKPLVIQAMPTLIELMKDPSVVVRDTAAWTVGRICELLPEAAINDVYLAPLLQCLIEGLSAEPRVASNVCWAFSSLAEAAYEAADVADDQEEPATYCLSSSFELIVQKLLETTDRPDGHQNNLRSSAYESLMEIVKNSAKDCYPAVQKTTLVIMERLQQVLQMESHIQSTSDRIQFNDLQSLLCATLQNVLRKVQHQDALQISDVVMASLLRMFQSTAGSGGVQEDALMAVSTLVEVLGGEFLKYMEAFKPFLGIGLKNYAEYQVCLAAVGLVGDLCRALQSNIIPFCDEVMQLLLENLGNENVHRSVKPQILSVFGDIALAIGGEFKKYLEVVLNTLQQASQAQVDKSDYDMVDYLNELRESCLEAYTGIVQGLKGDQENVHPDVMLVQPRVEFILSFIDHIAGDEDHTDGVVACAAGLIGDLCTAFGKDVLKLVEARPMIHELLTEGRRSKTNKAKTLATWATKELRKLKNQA
#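 FRET biosensor Rango (snurportin 1 IBB between N-terminal EYFP and C-terminal Cerulean), 50 nM in PBS/1 mM DTT/0.02% Tween-20/0.1% BSA, preincubated 5 min RT with compound; 0.125 microM importin beta added, 45 min RT, CFP/YFP FRET ratio read.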
# Active calls of the source: *; ? = inconclusive; . = no result given; & = joins results of further samples. An excerpt; count on the stated rates, not on these rows.
SMILES,Rango release inh,miR-21 reporter,GLA inh pH 4.5,Rango complex inh
Cc1ccc(S(=O)(=O)Nc2nc3ccccc3s2)cc1[N+](=O)[O-],-8%,0%,3,-4.8%
CCOC(=O)Cc1csc(NC(=O)CSc2nc3sc(C(=O)O)c(C)c3c(=O)[nH]2)n1,-3%,0%,1,-2.0%
Cc1ccc(S(=O)(=O)N2CCCC(C(=O)N3CCN(c4ccccc4)CC3)C2)cc1 (centres undefined),13%,13%,.,?
O=C(O)CCSc1nc(C(F)(F)F)cc(=O)n1-c1ccccc1,2%,-14%,1,1.1%
COCCN1CN=C(Nc2nc3ccccc3o2)NC1,13%,-31%,3,-0.2%
COc1ccc(C2SCCN2S(=O)(=O)c2ccccc2)cc1 (centres undefined),17%,3%,-1,0.8%
Cc1c(-n2c(=S)[nH]c3ccccc3c2=O)c(=O)n(-c2ccccc2)n1C,8%,-1%,0,3.2%
Cc1ccc(CNC(=O)CN(Cc2ccccc2)S(C)(=O)=O)cc1,9%,-4%,1,1.8%
Cn1c(SCC(=O)Nc2ccccc2Cl)nnc1C1CC1,17%,-4%,.,-0.8%
CS(=O)(=O)c1ccc2nc(NC(=O)c3ccc(Cl)nc3)sc2c1,-4%,-30%,0,-0.5%
CCCCCCC(=O)Oc1ccc(N2C(=O)CCC2=O)cc1,0%,0%,2,2.4%
CN(Cc1cc2ccccc2[nH]c1=O)C(=O)C1CCCCC1,4%,0%,10,0.2%
Cn1c(=O)c(=O)n(C)c2cc(S(=O)(=O)N3CCCCCC3)ccc21,9%,-5%,-2,2.9%
COc1cc(/C=C/C(=O)c2ccc3c(c2)OCO3)cc(OC)c1OC,11%,.,.,?
CC(C)CN(CC(C)C)C(=O)Nc1ccc(F)cc1F,-7%,1%,-1,-1.6%
Cc1ccc(C(c2nnnn2CS(=O)(=O)c2ccc(C)cc2)N2CCC(C(N)=O)CC2)cc1 (centres undefined),13%,1%,0,3.5%
O=C(NCc1ccccc1)c1nnc(CS(=O)(=O)c2ccccc2)o1,-10%,-4%,.,-1.3%
CC1CCN(C(=O)c2[nH]cnc2C(=O)NCC(=O)OC(C)(C)C)CC1,2%,-2%,.,-0.6%
Cc1c(C)n(CC(O)CN2CCCCC2)c2ccccc12 (centres undefined),12%,0%,0,1.8%
CNC(=O)Cn1c(=O)n(C)c2ccccc21,0%,0%,-3,1.4%
O=C(NCc1nc2ccccc2[nH]1)C1=C[C@@H](c2ccc(Br)cc2)C[C@@H](OCCCCO)O1,17%,15%,-2,-0.8%
OCCN1CCN(CC(O)COc2ccc3ccccc3c2)CC1 (centres undefined),-11%&1%,0%,4,1.4%&-2.6%
CC1(/[N+]([O-])=C\c2ccccc2F)CCCCC1=O (centres undefined),-1%,1%,2,-0.3%
CC(=O)N1CCN(S(=O)(=O)c2ccc(S(=O)(=O)NC3CC3)cc2)CC1,-6%,-4%,3,-3.3%
CC1=NN(C(N)=S)C(=O)C1N=Nc1ccc(C)c(Br)c1 (centres undefined),10%,-64%,.,1.6%
CC(C)(C)C(=O)/C=C(\N)c1ccncc1,0%,19%,7,2.4%
O=C(c1ccccc1F)N1CCN(c2ccc([N+](=O)[O-])c3ncccc23)CC1,-13%,-1%,-3,0.0%
Cc1cc(Br)cc(Br)c1OCC(=O)NNC(=O)Nc1ccccc1,1%,.,.,-0.5%
CCc1nnc(NS(=O)(=O)c2ccc(NC(=O)c3cc(Cl)ccc3Cl)cc2)s1,17%,-8%,-4,3.5%
COc1ccc(OCCOC(=O)c2cccc(-n3cnnn3)c2)cc1,10%,-27%,-9,1.2%
O=C(NCCCN1CCOCC1)c1cccnc1SCc1ccccc1Cl,-5%,-7%,1,-0.4%
C=CCn1c(C)cc(C2=NNC(=Nc3ccc(C)cc3)SC2)c1C,3%,4%,2,0.4%
Cc1nccn1-c1c2c(c(C#N)c3nc4ccccc4n13)CCCC2,-5%,.,.,0.8%
CCCCCCCC(=O)NN1CCOCC1,9%,-5%,-7,-2.0%
Cc1[nH]n(C(N)=S)c(=O)c1N=Nc1cccc([N+](=O)[O-])c1C,0%,-36%,.,1.6%
Cc1nc(C(=O)Nc2cc(F)cc(Cl)c2)sc1C1(C)CC(c2ccccc2)=NO1 (centres undefined),20%,.,.,0.3%
O=C(Nc1ccc(F)cc1)Nc1ccc([N+](=O)[O-])cn1,-15%,2%,-12,1.4%
COc1ccc(C2c3cc(OC)c(OC)cc3CCN2C2CC(=O)N(c3ccccc3)C2=O)cc1OC (centres undefined),10%,-2%,5,-3.7%
CC(Sc1ccc(Cl)cc1)C(=O)N(C)CC(=O)Nc1ccc(N2CCOCC2)cc1 (centres undefined),4%,.,.,1.1%
CCOc1cc(S(=O)(=O)N2CCC(Cc3ccccc3)CC2)c(OCC)cc1-n1cnnn1,13%,13%,-16,-2.5%
O=C(/C=C/c1ccc2c(c1)OCO2)Nc1nc2ccc(F)cc2s1,1%,-56%,-6,-0.2%
CC(C)CCNC(=O)C1CCN(S(=O)(=O)c2ccc3c(c2)CCC(=O)N3)CC1,?,-3%,-2,-3.0%
OCCC1CN(Cc2cccc3nccnc23)CCN1Cc1ccc(F)cc1 (centres undefined),13%,-3%,-4,6.8%
COc1ccc(/C=N/NC(=O)C(=O)/C=C2\NC3(CCCC3)Cc3ccccc32)cc1,-9%,-1%,-5,1.9%
Cc1ccc2cc3cc(C(=O)NC4CCCCC4)oc3nc2c1,16%,-17%,.,5.7%
Fc1ccc(NC(=S)NCCc2ccccc2)c(F)c1F,-13%,11%,1,2.7%
CC(C)c1ccc(NC2CCCN(C(=O)c3cccnc3)C2)cc1 (centres undefined),7%,2%,.,0.6%
N#CCC(CNc1ncc(C(F)(F)F)cc1Cl)OC(=O)c1ccc(Cl)cc1Cl (centres undefined),-12%,17%,-19,-0.7%
CC(C)COc1nc2c(c(=O)n(C)c(=O)n2C)n1C,-11%,1%,0,-1.4%
CC(C)NC(=O)Cn1c(SCC(=O)N2c3ccccc3CC2C)nc2ccccc21 (centres undefined),0%,-3%,5,-5.2%
Cc1ccc(OCc2nnnn2-c2ccccc2)cc1,-3%,-11%,0,0.8%
O=C1CN2C(=Nc3ccc(Br)cc3C2c2ccccc2)CCN1 (centres undefined),-13%,-1%,2,2.0%
CC(=O)N/C(=C/C(C)C)c1ccccc1,24%,.,.,?
COc1ccc(CN(CC(=O)NCc2ccco2)C(=O)CCC(=O)Nc2ccccn2)cc1,-20%,-2%,-3,-3.8%
CC1(C(=O)N/N=C/c2ccccc2)CC1(Cl)Cl (centres undefined),-12%,-1%,.,1.9%
CN(C)C(CNC1CC(C)(C)NC(C)(C)C1)c1cccc(F)c1 (centres undefined),4%,-6%,.,-2.8%
CCc1ccc(-c2nc(SCC(=O)N(CCOC)c3c(N)n(Cc4ccccc4)c(=O)[nH]c3=O)n[nH]2)cc1,0%,-1%,.,-1.1%
C#Cc1ccc(C(=O)NCc2ccc(N3CCCC3=O)cc2)cc1,1%,-14%,0,0.1%
Cc1ccc(S(=O)(=O)N(C)C)cc1NC(=O)/C=C/c1cccs1,1%,-11%,-2,0.8%
Cn1c(SCC(=O)N2CCCC2)nnc1-c1ccc2c(c1)OCO2,0%,-9%,.,1.2%

# Next section (2 carried over from the part before).
SMILES,Rango release inh,miR-21 reporter,GLA inh pH 4.5,Rango complex inh
Cc1ccc(S(=O)(=O)N(C)C)cc1NC(=O)/C=C/c1cccs1,1%,-11%,-2,0.8%
Cn1c(SCC(=O)N2CCCC2)nnc1-c1ccc2c(c1)OCO2,0%,-9%,.,1.2%
COC(=O)c1ccc(-n2cnc3ccccc32)nc1,-2%,-42%,9,2.1%
Fc1ccccc1COc1ccc(/C=N/n2cnnc2)cc1,13%,-35%,3,2.5%
O=C(Nc1ccc2c(c1)OCCO2)c1ccccn1,12%,11%,2,3.4%
CCOC(=O)C1CCCN(c2oc(-c3ccc(F)cc3)nc2C#N)C1 (centres undefined),1%,-12%,-4,1.4%
CCN1C(=O)NC(c2cc(Br)ccc2OC)C(C(=O)OC)=C1C (centres undefined),-27%,4%,-10,?
O=C(CSc1n[nH]c(=O)n1-c1cccnc1)Nc1ccccc1Cl,8%,0%,.,6.5%
Cc1occc1-c1nnc(SCc2cc(=O)n3cc(Br)ccc3n2)n1C,16%,-9%,-1,8.1%
COc1cc(CN(C2CCCCC2C)S(=O)(=O)c2ccc(S(=O)(=O)NC3CC3)cc2)cc(OC)c1OC (centres undefined),-10%,8%,-9,?
O=C(CN1C(=O)NC2(CCc3ccccc32)C1=O)Nc1ccc(Br)cc1F (centres undefined),-3%,.,.,-1.1%
O=C(c1ccc(Cl)cc1)C(CN1CCCCC1)c1ccccc1 (centres undefined),-8%,?,.,2.1%
COc1cc2c(cc1NC(=O)Nc1ccccc1)oc1ccccc12,8%,-7%,5,5.7%
O=C(O)C1C2C=CC(O2)C1C(=O)Nc1ccccn1 (centres undefined),1%,.,.,-0.3%
Cc1onc(-c2ccccc2)c1C(=O)OCC(=O)NC(C)c1ccc(Cl)cc1 (centres undefined),-17%,.,.,-1.0%
NC1=NC(=Nc2cccc(S(N)(=O)=O)c2)c2ccccc21,8%,4%,-4,-0.3%
Cc1[nH]nc(-c2ccc(O)c(C)c2O)c1-c1cnn(-c2ccccc2)c1,-6%,-8%,-4,1.2%
CCOc1ccc(S(=O)(=O)N2CCCC2)cc1,-1%,0%,5,0.3%
CC(CNC(=O)CN1C(=O)NC2(CCCCC2)C1=O)c1ccccc1 (centres undefined),-2%,.,.,-1.7%
COc1ccc(NC(=O)CN(C)C(=O)C(C)Oc2ccc(Br)cc2)cc1 (centres undefined),1%,.,.,0.7%
Cc1ccc(C(=O)N2CC(C)SC2=Nc2cccc(S(=O)(=O)N(C)C)c2)cc1 (centres undefined),-5%,-15%,1,2.7%
CCC(CO)Oc1cc(NC(=O)Cc2ccccc2F)c2ncn(C(C)C)c2c1 (centres undefined),-6%,.,.,-3.4%
CCN1C(=O)c2ccc(C(=O)NCc3ccco3)cc2C1=O,-2%,2%,.,0.2%
COc1ccc(OCCC(=O)NC2CCCCC2)cc1,-7%,-9%,3,4.0%
O=[N+]([O-])c1ccc(CN2CCN(c3ccc([N+](=O)[O-])cc3)CC2)cc1,2%,24%,.,?

# In the list so far, these have fluorine.
SMILES,Rango release inh,miR-21 reporter,GLA inh pH 4.5,Rango complex inh
O=C(O)CCSc1nc(C(F)(F)F)cc(=O)n1-c1ccccc1,2%,-14%,1,1.1%
CC(C)CN(CC(C)C)C(=O)Nc1ccc(F)cc1F,-7%,1%,-1,-1.6%
CC1(/[N+]([O-])=C\c2ccccc2F)CCCCC1=O (centres undefined),-1%,1%,2,-0.3%
O=C(c1ccccc1F)N1CCN(c2ccc([N+](=O)[O-])c3ncccc23)CC1,-13%,-1%,-3,0.0%
Cc1nc(C(=O)Nc2cc(F)cc(Cl)c2)sc1C1(C)CC(c2ccccc2)=NO1 (centres undefined),20%,.,.,0.3%
O=C(Nc1ccc(F)cc1)Nc1ccc([N+](=O)[O-])cn1,-15%,2%,-12,1.4%
O=C(/C=C/c1ccc2c(c1)OCO2)Nc1nc2ccc(F)cc2s1,1%,-56%,-6,-0.2%
OCCC1CN(Cc2cccc3nccnc23)CCN1Cc1ccc(F)cc1 (centres undefined),13%,-3%,-4,6.8%
Fc1ccc(NC(=S)NCCc2ccccc2)c(F)c1F,-13%,11%,1,2.7%
N#CCC(CNc1ncc(C(F)(F)F)cc1Cl)OC(=O)c1ccc(Cl)cc1Cl (centres undefined),-12%,17%,-19,-0.7%
CN(C)C(CNC1CC(C)(C)NC(C)(C)C1)c1cccc(F)c1 (centres undefined),4%,-6%,.,-2.8%
Fc1ccccc1COc1ccc(/C=N/n2cnnc2)cc1,13%,-35%,3,2.5%
CCOC(=O)C1CCCN(c2oc(-c3ccc(F)cc3)nc2C#N)C1 (centres undefined),1%,-12%,-4,1.4%
O=C(CN1C(=O)NC2(CCc3ccccc32)C1=O)Nc1ccc(Br)cc1F (centres undefined),-3%,.,.,-1.1%
CCC(CO)Oc1cc(NC(=O)Cc2ccccc2F)c2ncn(C(C)C)c2c1 (centres undefined),-6%,.,.,-3.4%
